gsp ag: gsp mutant agonism; gsp mutant cells, cAMP HTRF, 30 min; control for the full effect not named in the record; Potency, µM (titrated, usually from 76.9 µM), inactives show top-dose activation (cAMP increase), hits mostly activators; 0.13% of 340,000 active; active = well fitted activation curve with a large enough effect; inconclusive = small, poorly fitted or top-dose-only effect, or another doubt; inactive = no such curve, though single readings can be large or run the other way; cell line not stated here;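 note: phosphodiesterase inhibitor Ro 20-1724 added with compounds to block cAMP breakdown; potency is the fitted concentration of half-maximal effect; nearly all actives have a fitted effect of over 60% in size; about a fifth of the inactives were tested at one dose only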
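Cells in DMEM/10% FBS with G418 were pretreated with compounds in DMSO plus […] (300 uM stock) for 30 min at 37C. cAMP was measured by HTRF (cAMP-d2 plus anti-cAMP antibody-K) after 30 min at room temperature.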
CtBP-E1A inh: inhibitors of CtBP/E1A interaction | AID 651724 | AlphaScreen GST-E1A/His-CtBP binding, 1536-well; stronger effect = lower value; control for the full effect not named in the record | 0.49% of 340,000 active | activity change, % (no concentration beside the values); in the data active means activity change below about -65%; inconclusive means about -30% to -65%; inactive means above about -30%; note: % is set by controls: 0 for no effect and ±100 for the full control effect; compound concentration not given in the record
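AlphaScreen with 125 nM GST-E1A and 125 nM His-CtBP (5X stocks) in Tris pH 8.0, 300 mM NaCl, BSA, Tween 20, TCEP. Compounds preincubated 2 h at 37 deg C, then glutathione donor/nickel acceptor beads added for 1 h at 37 deg C in dark.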
D2 ag: agonists of human D2 dopamine receptor (beta-arrestin) | P14416 | DiscoveRx PathHunter D2 beta-arrestin, luminescence, 90 min; 100% = 57 uM dopamine signal | activation, % (test concentration not listed) | 0.084% of 360,000 active | AID 624465; in the data active = activation above about 40%; inconclusive = about 15% to 40%; inactive = below about 15%; note: compound concentration not given in the record; the text of the record calls up to 30% inactive
Target sequence (P14416 whole entry, looked up): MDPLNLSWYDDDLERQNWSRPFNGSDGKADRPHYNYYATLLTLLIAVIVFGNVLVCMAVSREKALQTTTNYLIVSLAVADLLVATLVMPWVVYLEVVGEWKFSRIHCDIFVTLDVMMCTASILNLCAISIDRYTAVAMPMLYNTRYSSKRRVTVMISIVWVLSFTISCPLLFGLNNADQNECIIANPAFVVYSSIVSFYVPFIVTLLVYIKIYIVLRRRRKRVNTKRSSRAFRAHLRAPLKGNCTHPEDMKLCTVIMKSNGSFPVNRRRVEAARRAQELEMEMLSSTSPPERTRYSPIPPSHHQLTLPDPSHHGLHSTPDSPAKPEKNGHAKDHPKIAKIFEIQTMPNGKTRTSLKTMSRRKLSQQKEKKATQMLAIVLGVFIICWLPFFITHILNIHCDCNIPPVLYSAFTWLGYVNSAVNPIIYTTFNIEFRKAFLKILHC
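DiscoveRx PathHunter D2 beta-arrestin cells (2,100/well) attached overnight, then compound-stimulated 90 min at 37 C in HBSS/10 mM HEPES/0.1% Tween-20 buffer; beta-galactosidase complementation read by luminescence after 1 h at ambient temperature. Dopamine 57 uM final (EC100) as control.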
gsp antag: antagonizes gsp, the McCune-Albright syndrome mutation; gsp-mutant cells, cAMP HTRF, 30 min; control for the full effect not named in the record; Potency, µM (highest dose often 76.9 µM), inactives show top-dose activity change, negative = inhibition, most hits filed as inhibitors; 0.4% of 340,000 active; AID 624288; active = falling curve of any shape with a large fitted effect; inconclusive = falling curve, mostly with a smaller effect; inactive = flat or rising curve; cell line not stated here;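 note: intracellular cAMP measured with PDE inhibitor Ro 20-1724 present during compound exposure; potency is the fitted concentration of half-maximal effect; % is set by controls: 0 for no effect and ±100 for the full control effect; nearly all actives have a fitted effect of over 65% in size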
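Measurement of cellular cAMP by homogeneous time-resolved fluorescence following a 30 min compound exposure at 37C. The PDE inhibitor […] was present throughout; the assay buffer was DPBS with 0.05% BSA and 0.005% Tween 20.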
Six1-Eya2 inh: blocks human Six1 binding to Eya2; AID 651725; 0.56% of 360,000 active; activity change, % (test concentration not listed); AlphaScreen GST-Six1/His-Eya2 binding, biochemical; stronger effect = lower value; control for the full effect not named in the record; in the data active = activity change below about -65%; inconclusive = about -30% to -65%; inactive = above about -30%; note: % is set by controls: 0 for no effect and ±100 for the full control effect; compound concentration not given in the record
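Six1/Eya2 binding was read as AlphaScreen signal after compounds were pinned into GST-Six1 plus His-tagged Eya2 (5X stock 250/500 nM) in pH 8.0 Tris/NaCl/TCEP buffer, beads added, then incubated 1 h, 37 C, dark.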
D2 potentiator: potentiates the human D2 dopamine receptor allosterically; potentiation, % (test concentration not listed); 0.23% of 360,000 active; DiscoveRx D2 beta-arrestin cells, luminescence, 90 min; 100% = 57 uM dopamine signal; P14416; active = potentiation of 50% or more; inconclusive = 30% to 50%; inactive = 30% or less;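 note: compound concentration not given in the record; tested on top of an EC20 dose of dopamine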
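PathHunter beta-arrestin assay in DiscoveRx D2 cells. Compounds were added with an EC20 of dopamine (50 nM final) for 90 min at 37 deg C. Luminescence was read 1 h after detection reagent, with 57 uM dopamine as the EC100 control.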
* = called active by the depositor; ? = inconclusive; . = not tested or not shown; [ ] = dose if it differs, or a comment. Not a hit list. About 1.4% of those tested had a hit in this group.

SMILES	gsp ag	CtBP-E1A inh	D2 ag	gsp antag	Six1-Eya2 inh	D2 potentiator
O=C(CNC(=O)c1ccccc1F)OCC(=O)c1c[nH]c2ccccc12	5.8%	5.0	0.3	-9.6%	0.9	-5.4
COc1cc(CCC(=O)OCC(=O)N2CC(=O)Nc3ccccc32)cc(OC)c1OC	-35.1%	4.2	-2.9	1.6%	-2.4	-8.9
CN(C)C(CNC(=O)c1ccc(-c2ccccc2)cc1)c1ccccc1 (configuration not stated)	7.1%[15.4 µM]	-12.5	0.4	10.5%	-10.5	-18.6
C1CCN(c2nc3nonc3nc2NCC2CCOCC2)CC1	29.6%	.	-10.3	-1.4%	-0.7	0.1
CC1CCN(C(=O)CSc2nnc(CNC(=O)c3ccco3)o2)CC1	-10.9%	4.1	-1.7	-16.9%	-1.3	-16.1
COCCNC(=O)C1CCC(CNS(=O)(=O)c2c(C)cc(C)cc2C)CC1 (configuration not stated)	-23.7%	.	-3.2	8.4%	5.0	-2.1
COc1cccc(/C=N/NC(=O)c2ccc(=O)n(C)c2)c1O	10.3%[15.4 µM]	-87.4*	-5.0	-9.9%	-88.2*	-11.6
COc1ccc(C(=O)NC2CCN(C(=O)Nc3ccccc3Cl)CC2)cc1	-3.7%[15.4 µM]	-0.8	-0.8	7.5%	0.4	4.1
O=C(Nc1cccc(OC(F)(F)F)c1)c1ccc(-c2cccnc2)c2ccoc12	.	-25.2	-3.6	.	11.0	-14.8
Cc1ccn2c(NC(=O)c3ccccc3)c(-c3cccs3)nc2c1	-26.6%	4.2	-2.9	8.5%	-8.9	-5.2
c1ccc2c(c1)NC1(CCCC1)n1c-2nc2ccccc21	-60.3%	7.1	0.1	-7.1%	-1.7	-11.4
CC(C)CC(C)NNC(=O)c1cc2ccccc2[nH]1 (configuration not stated)	-26.3%	-2.6	0.5	-8.8%	-1.7	12.4
NC(=O)c1cc2ccccc2o/c1=N/NC(=O)c1ccccc1	7.8%	-11.7	-1.5	-6.2%	-26.7	-3.7
CCCCn1c(N)c(N(CCOC)C(=O)c2oc3c(Cl)cccc3c2C)c(=O)[nH]c1=O	16.9%	-2.4	0.9	.	-18.2	-7.7
COc1cc(C(=O)NNC(=O)COc2ccc(Br)cc2)ccc1OCC(=O)N1CCOCC1	13.9%	-9.7	-2.6	6.5%	7.5	-2.9

Single values from the entries so far.
Reading for COc1cc(C(=O)NNC(=O)COc2ccc(Br)cc2)ccc1OCC(=O)N1CCOCC1 under gsp antag: 6.5%
Reading for CCCCn1c(N)c(N(CCOC)C(=O)c2oc3c(Cl)cccc3c2C)c(=O)[nH]c1=O under gsp ag: 16.9%
Reading for O=C(Nc1cccc(OC(F)(F)F)c1)c1ccc(-c2cccnc2)c2ccoc12 under D2 potentiator: -14.8

(next part)
SMILES	gsp ag	CtBP-E1A inh	D2 ag	gsp antag	Six1-Eya2 inh	D2 potentiator
Cc1ccc(C(=O)OCC(=O)NC2CCCCCCC2)cc1C	-30.5%[inhibitor]	8.8	1.6	.	7.8	1.0
Cc1ccc(NC(=O)N[C@H](C(=O)O)C(C)C)c(C)c1	-13.1%[15.4 µM]	-5.4	3.0	16.1%	-8.5	-2.0
Cc1ccc2[nH]cc(CCNC(=O)c3cccnc3)c2c1	-6.9%	-2.2	-2.4	-3.9%	-2.1	-9.0
N=c1c(C(=O)NC2CCCC2)cc2c(=O)n3ccccc3nc2n1C1CCCC1	?	-3.5	-1.1	-1.6%	-0.2	-20.5
O=S(=O)(NCc1cccs1)c1ccc(Br)cc1	-21.2%	6.0	11.8	10.8%	9.8	-0.4
Cc1cc(C)n(/N=C/c2cc(Cl)cc(Cl)c2O)c(=O)c1	-27.2%	-0.3	-1.1	?	-4.4	-5.2
COc1ccc(NC(=O)CS(=O)CC(=O)Nc2ccc(F)cc2F)cc1 (configuration not stated)	27.9%	3.0	0.0	8.9%	-2.3	-5.6
Clc1ccccc1-c1nnc(-c2ccc3c(c2)OCO3)o1	26.8%	12.7	-4.0	-4.9%	10.5	-2.5
CCCCCN(C(=O)NC(=O)Nc1cccc(C)c1C)S(C)(=O)=O	4.8%[15.4 µM]	-4.8	-5.3	9.3%	-10.3	-12.0
CSc1nc2ccc(NC(=O)c3nn(C(C)C)c(=O)c4ccccc34)cc2s1	?	-7.8	-3.4	-11.6%	3.4	-4.7
COc1ccc2oc(C(=O)Nc3ccccc3N3CCOCC3)c(C)c2c1	3.4%[15.4 µM]	-10.2	-5.2	-1.5%	-4.1	5.8
Cc1ccc(C(c2nnnn2C2CCCCC2)N(C)C2CCCCC2)cc1 (configuration not stated)	4.5%	0.3	0.8	-14.5%	3.9	-19.8
NNC(=O)C1c2ccccc2Oc2ccccc21	9.9%	.	-1.2	7.0%	3.4	-1.6
S=C(NCC1CCCO1)NC1CC1 (configuration not stated)	-1.0%	-0.2	-1.7	8.9%	1.7	-4.3
CCc1ccc(CN(C)Cc2nc(Cc3ccc(OC)c(OC)c3)no2)nc1	-0.8%[15.4 µM]	-4.5	-1.4	10.8%	-4.9	-2.9
COC(=O)C1C2C=CC3(CN(c4cccc(Cl)c4)C(=O)C13)O2 (configuration not stated)	-44.3%[inhibitor]	3.5	1.7	7.0%	6.9	-1.1
CC(C)CC1NC(=O)N(Cc2cc(=O)n3ccsc3n2)C1=O (configuration not stated)	9.4%[15.4 µM]	-15.4	-0.8	.	-0.5	3.8
CC(C)(C)c1ccc(S(=O)(=O)NC(=O)C2(C)CCN2C(=O)CC2CCCCC2)cc1 (configuration not stated)	.	-20.4	-2.1	.	12.4	-7.3
COc1ccc(NC(=O)CN2C(=O)C(C)Oc3ccccc32)c(OC)c1 (configuration not stated)	25.9%	7.9	-4.2	-1.5%	2.6	-15.6
CCOC(=O)C(=O)N(Nc1ccccc1C)c1ccccc1C	27.5%	.	-4.9	-5.1%	-1.7	-9.1
O=C(CCc1nnc(-c2ccccc2)o1)NCc1c(F)cccc1F	-0.8%	3.1	-1.1	5.1%	2.1	1.0
COC(=O)c1sccc1NC(=O)Cc1ccc(Br)cc1	2.0%[15.4 µM]	1.3	2.0	-19.3%	26.1	-8.2
O=c1onc(-c2ccc(Cl)cc2)n1Cc1ccc(F)cc1	17.6%	17.5	9.9	-18.9%	6.4	11.6
CCC(Sc1n[nH]c(=O)[nH]c1=O)C(=O)OCc1ccccc1 (configuration not stated)	-18.6%	0.0	-0.4	-18.4%	18.6	?
CCCCOc1ccccc1Cn1c(=O)oc2ccc(C)cc21	-80.1%[inhibitor]	39.2	0.9	-8.9%	34.0	-4.2
COc1cc(OC)c(C(=O)NCC2CCCO2)cc1OC (configuration not stated)	1.5%[15.4 µM]	3.9	-0.7	12.4%	1.0	-2.4
O=C(OCn1nnc2ccccc2c1=O)c1cccc(S(=O)(=O)N2CCOCC2)c1	?	-1.8	-2.2	9.2%	-0.8	-0.9
CCOC(=O)C1CCN(C(=O)c2ccc(NC(=O)C3CCCO3)cc2)CC1 (configuration not stated)	-20.8%	-2.4	-0.1	2.0%	2.0	-14.1
COC(=O)c1c(NC(=O)Nc2ccc(Cl)cc2)sc(C)c1C	-9.0%	0.1	5.8	13.9%	-2.5	-34.8
O=C1CN(C(=O)c2c(F)cccc2F)C(c2ccccc2)c2cc(Br)ccc2N1 (configuration not stated)	13.7%	?	4.4	-5.8%	-26.7	-8.5
CCOCc1cnc(C)nc1NCC(=O)c1c(C)[nH]c2ccc(OC)cc12	6.6%	7.1	-0.4	2.1%	5.7	-17.2
COc1ccc(OC(=O)c2cccnc2)cc1	-19.2%	3.4	-1.4	-6.2%	4.4	9.3
COc1cc(CC(=O)Nc2nc(-c3ccccc3)c(C(C)=O)s2)cc(OC)c1OC	-14.8%[15.4 µM]	-2.9	0.1	-9.4%	-7.6	0.8
O=C(O)C1CCN(C(=O)c2ccco2)CC1	19.5%	-19.2	-1.9	-6.6%	11.4	10.6
Cc1cc(NC(=O)CSc2nc(C(C)C)nc3sc4c(c23)CCC(C)C4)no1 (configuration not stated)	?	-0.6	-3.7	13.8%	6.2	-5.3
CCOc1cccc(C(=O)Nc2ccccc2N2CCN(C(=O)C(C)C)CC2)c1	-10.3%	-13.8	-3.7	?	-4.6	1.3
COc1ccc2[nH]c(=O)c(CN(C(=O)c3ccco3)C(C)C)cc2c1	12.6%	-11.2	1.6	-1.2%	-1.2	11.7
COc1ccc2[nH]c3c(c2c1)CCN1C(=O)C(CC(=O)NCCCn2ccnc2)C[C@H](C(=O)N2CCOCC2)[C@@]31CCC1CCCC1 (some centres not stated)	.	23.6	0.9	5.8%	18.1	6.2
COC(=O)c1ccc(NC(=O)c2cc3sccc3n2C)cc1	21.4%	-7.1	-1.1	-15.5%	-19.1	-3.8
COc1ccc(OCc2cc(C(=O)N3CCCCCC3)no2)c(Cl)c1	-12.4%	8.7	-3.4	3.0%	14.1	10.0
COc1cccc(S(=O)(=O)N(C)C[C@H]2Oc3ncc(Br)cc3C(=O)N([C@@H](C)CO)C[C@@H]2C)c1	?	-5.0	-8.7	.	2.5	-2.2
CCN(CC)S(=O)(=O)c1ccc(C(=O)Nc2ccc(OCC(=O)N3CCOCC3)cc2)cc1	-10.0%	-0.3	-3.9	1.7%	2.0	-23.5
CCCC(c1nnnn1C(C)(C)C)N1CCN(c2ccccc2)CC1 (configuration not stated)	17.3%[15.4 µM]	-11.4	-1.3	4.8%	-0.2	-6.5
Oc1ccc(C[C@H]2CNC(=S)N2C[C@H]2CCCN2C[C@H](Cc2ccccc2)N2C[C@H](Cc3ccc(O)cc3)N(CC3CCCCCC3)C2=S)cc1	.	-2.4	6.1	.	-11.1	1.1

In the list so far, 4 contain two or more sulfur atoms.
SMILES	gsp ag	CtBP-E1A inh	D2 ag	gsp antag	Six1-Eya2 inh	D2 potentiator
O=S(=O)(NCc1cccs1)c1ccc(Br)cc1	-21.2%	6.0	11.8	10.8%	9.8	-0.4
CSc1nc2ccc(NC(=O)c3nn(C(C)C)c(=O)c4ccccc34)cc2s1	?	-7.8	-3.4	-11.6%	3.4	-4.7
Cc1cc(NC(=O)CSc2nc(C(C)C)nc3sc4c(c23)CCC(C)C4)no1 (configuration not stated)	?	-0.6	-3.7	13.8%	6.2	-5.3
Oc1ccc(C[C@H]2CNC(=S)N2C[C@H]2CCCN2C[C@H](Cc2ccccc2)N2C[C@H](Cc3ccc(O)cc3)N(CC3CCCCCC3)C2=S)cc1	.	-2.4	6.1	.	-11.1	1.1

With a hit mark in CtBP-E1A inh, among the entries above:
SMILES	gsp ag	CtBP-E1A inh	D2 ag	gsp antag	Six1-Eya2 inh	D2 potentiator
COc1cccc(/C=N/NC(=O)c2ccc(=O)n(C)c2)c1O	10.3%[15.4 µM]	-87.4*	-5.0	-9.9%	-88.2*	-11.6
